hNpr1 antagonist: blocks ANP-stimulated signaling of human Npr1 receptor; P16066; HEK293 hNpr1 GloSensor cGMP, ANP-stimulated luminescence; Potency, µM (top dose mostly 46.3 µM), inactives show top-dose activity change, negative = inhibition, most hits filed as inhibitors; 76,000 tested, 1.6% active; AID 1347048; active = well fitted inhibition curve with a large enough effect; inconclusive = small, poorly fitted or top-dose-only effect; inactive = no such curve, though single readings can be large or run the other way;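 note: nearly all actives have a fitted effect of over 60% in size; nearly all hits also lower the signal before the agonist is added; a reference antagonist and vehicle were the controls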
Target sequence (P16066 whole entry, looked up): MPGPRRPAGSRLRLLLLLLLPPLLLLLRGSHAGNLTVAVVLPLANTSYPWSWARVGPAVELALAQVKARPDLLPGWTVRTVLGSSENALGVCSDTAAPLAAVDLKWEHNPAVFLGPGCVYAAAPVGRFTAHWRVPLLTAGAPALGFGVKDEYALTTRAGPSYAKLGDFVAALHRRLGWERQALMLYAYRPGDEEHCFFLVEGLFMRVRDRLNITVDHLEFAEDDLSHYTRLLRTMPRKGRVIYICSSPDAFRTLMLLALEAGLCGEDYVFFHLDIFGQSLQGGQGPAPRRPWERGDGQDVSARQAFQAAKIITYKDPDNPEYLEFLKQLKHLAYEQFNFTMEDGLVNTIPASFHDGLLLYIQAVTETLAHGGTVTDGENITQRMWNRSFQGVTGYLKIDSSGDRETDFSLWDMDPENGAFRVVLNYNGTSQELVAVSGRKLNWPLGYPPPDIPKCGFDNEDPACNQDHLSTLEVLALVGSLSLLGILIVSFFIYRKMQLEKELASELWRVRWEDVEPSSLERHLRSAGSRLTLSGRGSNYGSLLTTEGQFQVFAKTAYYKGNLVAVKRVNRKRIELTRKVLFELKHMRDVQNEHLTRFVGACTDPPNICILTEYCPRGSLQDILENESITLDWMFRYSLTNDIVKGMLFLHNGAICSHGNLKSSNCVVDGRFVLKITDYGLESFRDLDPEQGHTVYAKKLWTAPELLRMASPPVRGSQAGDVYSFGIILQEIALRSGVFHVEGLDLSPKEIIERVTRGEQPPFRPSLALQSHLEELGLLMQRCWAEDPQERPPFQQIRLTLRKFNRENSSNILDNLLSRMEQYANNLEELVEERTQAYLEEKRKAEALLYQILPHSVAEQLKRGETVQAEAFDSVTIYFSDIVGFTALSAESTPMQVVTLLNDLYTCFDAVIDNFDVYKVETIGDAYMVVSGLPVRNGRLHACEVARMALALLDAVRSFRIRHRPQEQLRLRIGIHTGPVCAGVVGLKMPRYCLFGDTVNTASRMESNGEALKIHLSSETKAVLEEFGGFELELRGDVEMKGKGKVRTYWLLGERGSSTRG
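Compound pre-incubated 30 min at room temperature on GloSensor-loaded HEK293 cells stably carrying hNpr1 and the pGS-40F cGMP biosensor. Stimulation uses hNppA at 0.1 nM final; luminescence is taken at baseline and 20 min post-agonist.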
* marks the source's active call; other numbers are inactive results; ? = inconclusive; [ ] = another dose, or the depositor's remark. % is set by controls: 0 for no effect and ±100 for the full control effect; potency is the fitted concentration of half-maximal effect.

No. | SMILES | hNpr1 antagonist
1 | Cc1nc2scc(CC(=O)NC(C)C)n2c(=O)c1-c1cc(C)n(-c2cccc(F)c2)n1 | 2.1%
2 | COc1cccc(C(=O)N2C(C(=O)NCc3ccccc3F)COC23CCC(C)CC3)c1 (stereo unspecified) | 0.7%
3 | NC1CC(c2cc(N3CCN(CCOc4ccccc4)CC3)ncn2)C1 (stereo unspecified) | -24.1%
4 | O=C(CC1=C2CCCCC2NC1=O)NCC1CC1 (stereo unspecified) | -10.8%
5 | COc1ccc(C)cc1NC(=O)Cn1cccc1-c1nc(-c2ccc(F)cc2)no1 | -15.8%
6 | Cc1cccc(OCCc2noc(C3CCCN3C(=O)c3ccnn3C)n2)c1 (stereo unspecified) | 4.6%
7 | Cc1ccc(CCNC(=O)C2CCN(C(=O)c3cc4c(=O)[nH]c(C)cn4n3)CC2)cc1 | -14.5%
8 | Cc1cccc2c1nc1n2[C@@H](CNCc2cccnc2)COC1 | -5.8%[70.6 µM]
9 | O=C(c1ncccc1O)N1CCCC(CCc2cccc(C(F)(F)F)c2)C1 (stereo unspecified) | -19.3%
10 | Cc1nn2c(c1-c1ccccc1C(N)=O)N(C(=O)c1ccccc1)CCC2 | 0.5%[70.6 µM]
11 | O=C(N[C@H]1CC[C@H](Nc2nccc(-c3cccnc3)n2)C1)c1ccc(O)cc1 | 0.7%
12 | COc1ccc(C(=O)NC2CCN(c3cc(-c4ccccc4)[nH]n3)CC2)cc1F | -22.1%
13 | Cc1ccc(-c2nc(CNC(=O)[C@@H](N)[C@@H](C)O)[nH]c2-c2ccccn2)cc1 | 0.7%
14 | COc1ccc(NC(=O)O[C@@H]2CO[C@H]3[C@@H]2OC[C@@H]3NC(=S)NC2CCCCC2)cc1 | 4.4%
15 | COCCS(=O)(=O)c1ncc(CN2CC[C@@H]3CCCC[C@H]3C2)n1Cc1ccccc1 | -3.8%
16 | Cc1nn(C)c(C)c1CN(Cc1ccc2c(C)cc(=O)oc2c1)C1CC1 | ?
17 | Cc1ccc(S(=O)(=O)N2CCCN(C)c3ccccc32)cc1F | -9.4%
18 | COC(=O)[C@@H]1Cc2c([nH]c3ccccc23)[C@H]2C[C@@H](NCc3cccs3)C[C@@H](c3ccccc3F)N21 | -2.5%
19 | Cc1noc2c(N3CC[S+](=O)([O-])CC3)cc(-c3cccs3)nc12 | -2.0%[70.6 µM]
20 | COc1nccnc1NC1CCN(C(=O)c2ccccc2C)CC1 | 2.1%
21 | CCN(Cc1ccncc1)C(=O)CC1C(=O)NCCN1CCc1ccccc1 (stereo unspecified) | 7.1%
22 | Cc1ccc(S(=O)(=O)N2CCC(CCC(=O)NCc3cccc(C)c3)CC2)cc1 | -5.1%
23 | CCOc1ccc(CC(=O)N2CCC(Cc3nc(-c4ccc(F)cc4)no3)CC2)cc1 | 6.31µM*
24 | CCn1ncc(CN2CCCC(c3nc(C(C)C)no3)CCNC(=O)CC2)c1C (stereo unspecified) | 1.2%
25 | Cc1ccccc1Cn1cc(C(=O)N2CCN(C3CCCCC3)C(=O)C2)nn1 | -4.9%

Reformatted: entries from further up
item | hNpr1 antagonist | Compound
20 | 2.1% | COc1nccnc1NC1CCN(C(=O)c2ccccc2C)CC1
21 | 7.1% | CCN(Cc1ccncc1)C(=O)CC1C(=O)NCCN1CCc1ccccc1 (stereo unspecified)
22 | -5.1% | Cc1ccc(S(=O)(=O)N2CCC(CCC(=O)NCc3cccc(C)c3)CC2)cc1
23 | 6.31µM* | CCOc1ccc(CC(=O)N2CCC(Cc3nc(-c4ccc(F)cc4)no3)CC2)cc1
24 | 1.2% | CCn1ncc(CN2CCCC(c3nc(C(C)C)no3)CCNC(=O)CC2)c1C (stereo unspecified)

(cont.)
No. | SMILES | hNpr1 antagonist
26 | CCCN1C(=O)CCc2cc(NC(=O)CCOC)ccc21 | -0.1%
27 | COCC(=O)N1CCCC(c2cc(N3CCCC3)nc(C)n2)C1 (stereo unspecified) | 5.0%
28 | O=C(Cc1ccc(N(Cc2ccccc2)C(=O)c2ccco2)cc1)Nc1ccccc1 | -15.5%
29 | Cc1nc(C)c(C(=O)N2CCc3c(c(-c4nncn4Cc4ccccc4)nn3C)C2)s1 | 3.9%
30 | O=C(Nc1cccc(-c2nnc3n2CCCC3)c1)c1ccccc1Cl | 0.0%
31 | c1ccc(CCCNc2ncncc2-c2nc(-c3ccccc3)no2)cc1 | 3.9%
32 | NC(=O)c1cccc(-c2n[nH]c3c2CC(=O)N(Cc2ccccc2F)C3)c1 | -3.5%[70.6 µM]
33 | Cc1ccc(CN2C(=O)NC3(CCN(C(=O)c4ccc(C(C)(C)C)cc4)C3)C2=O)cc1 (stereo unspecified) | -25.6%
34 | Nc1n[nH]c(CNC(=O)c2cn(CCC3CCCCN3)nn2)n1 (stereo unspecified) | -3.2%
35 | O=C1Nc2ccccc2CC12CCN(Cc1ccccc1)CC2 | 0.0%[70.6 µM]
36 | COc1cccc(CN2CCC3(CC2)COc2ccccc2CN3)c1 | 0.0%
37 | O=S(=O)(N1CCOCC1)N1CCCC(c2ccccc2)(c2ccccc2)C1 | 1.5%
38 | Cn1ccc2c(C(=O)NCc3cccnc3)nc(Nc3ccccc3)cc21 | ?
39 | COc1cccc(-c2cc3c(=O)n(CCNC(=O)COc4ccc(F)cc4)ccn3n2)c1 | -28.6%
40 | CN1C(=O)[C@@H]2C[C@@H](O)CN2C2(CN(Cc3ccoc3)C2)C1=O | 4.5%[70.6 µM]
41 | COCCOc1ccc2c(n1)CCN(C(=O)C1(c3ccccc3)CC1)C2 | 7.6%
42 | CCc1noc([C@@H]2CC(F)(F)CN2C(=O)c2cc(C)no2)n1 | 11.5%
43 | Cc1nn(Cc2ccccc2)c(C)c1[C@@H]1C=C[C@@H](NS(=O)(=O)c2ccccc2)C1 | -28.6%[70.6 µM]
44 | O=C(CCc1nnn2c1CN(S(=O)(=O)c1ccc(F)cc1)CC2)NC1CC1 | -2.1%
45 | CC1(C)CNC(=O)c2nc(CCN3CCCc4ccccc43)[nH]c2C1 | -0.6%
46 | CN(Cc1ccc(F)cc1)c1ccc2ncc(Nc3ccncc3)n2n1 | ?
47 | COc1ccc(C)cc1NC(=O)N1CCN(C)C2(CCC(=O)N(C)CC2)C1 (stereo unspecified) | 2.0%
48 | COc1cc(NC(=O)Cn2c(N3CCOCC3)nc(C)cc2=O)cc(OC)c1OC | -3.0%
49 | CC(=O)Nc1cccc(C(=O)NC2CCCN(c3cc(-c4ccc(Cl)cc4)[nH]n3)C2)c1 (stereo unspecified) | 4.7%
50 | CCCc1nnc(C[C@@H]2C[C@@H](C(C)C)[C@H](CN3CCC(CO)CC3)C=C2C)o1 | -1.9%[70.6 µM]
51 | c1ccc(CCCNc2nccc(-c3ccccn3)n2)nc1 | 1.5%
52 | O=C(Cc1cccc(C(F)(F)F)c1)N1CCCc2ncc(C(=O)N3CCC[C@@H]3c3ccc(F)cc3)cc21 | -27.2%
53 | COCc1cn([C@H]2CO[C@H]3[C@@H]2OC[C@@H]3NC(=O)c2ccc(C(F)(F)F)cc2)nn1 | -0.1%[70.6 µM]
54 | O=C1NC2(CN(C(=O)Cc3ccccc3)C2)Oc2ccccc21 | -22.7%[70.6 µM]
55 | COc1ccc2cc(C(=O)N3CCC4(CC3)CC(Cc3nc(C)no3)CCO4)[nH]c2c1 (stereo unspecified) | -19.7%
56 | CCc1cc(N(C)Cc2noc(C3CC3)n2)n2nc(C)c(C)c2n1 | -2.9%
57 | O=C(N[C@H]1CCOC[C@H]1C1CCOCC1)c1cnc(CN2CCCC2)s1 | 5.7%
58 | COCCN1CC(c2n[nH]c(C3CCOCC3)n2)CCC1=O (stereo unspecified) | 1.3%
59 | COC(=O)C1=C(C)N=C2SC=C(CC(=O)NC3CC3)N2C1c1cccc(F)c1 (stereo unspecified) | -0.8%
60 | Cc1ccc(NC(=O)N2CC(c3nnc(C(C)C)o3)C3(CCOCC3)C2)cc1 (stereo unspecified) | 7.7%
61 | CSCC(=O)N1CCC(C2CCN(C(C)=O)CC2)C1 (stereo unspecified) | 2.0%
62 | CC1=C[C@@H](CNC2CCN(C)CC2)[C@H](C(C)C)C[C@H]1Cc1nc2ccccc2[nH]1 | 0.0%[70.6 µM]
63 | Cc1cnc(C)c(-c2cc(O)c3c(c2)CN(C(=O)c2ccncn2)CCO3)n1 | 1.3%
64 | O=C(NCC1CCN(c2cc(-c3ccc(F)cc3)[nH]n2)CC1)c1ccc2nc[nH]c2c1 | -8.5%
65 | COCc1noc(CCNC(=O)[C@H]2CCC[C@@H](O)C2)n1 | 0.8%
66 | COc1ccc(C(=O)N2CCC3(CC2)c2[nH]c4ccccc4c2CCN3C)cn1 | -0.8%
67 | CC(C)C(=O)N1CCC(Oc2ccccc2)C1 (stereo unspecified) | -5.2%
68 | COc1ccc(CNC(=O)CC[C@]23CC[C@](C)(O)C[C@H]2C(C)(C)C[C@@H]3NC(=O)c2cccs2)cc1 | 7.1%
69 | COc1ccc(C(=O)N2C3CCCC2CC(=O)C3)cc1 | 2.5%[70.6 µM]
70 | O=C(CCc1nc2ccc(Cl)cc2[nH]1)N1CCc2c(nc3cc(-c4ccccc4)[nH]n3c2=O)C1 | 2.3%
71 | CC1(C(=O)NCc2cccc(F)c2)COCc2cnc(Nc3ccccc3)nc21 (stereo unspecified) | -24.7%[70.6 µM]
72 | COc1ccc2c(c1)CCN=C2C[C@H]1CN(C(=O)Nc2ccccc2)CC[C@H]1CC(=O)O | 1.9%[70.6 µM]
73 | O=C(Nc1ccccc1)N1CCC(CCNC(=O)C2(c3ccccc3)CC2)CC1 | 0.1%
74 | CC(=O)NC[C@H]1CCN(S(=O)(=O)c2cccc(C#N)c2)C[C@H]1N(C)C | 11.5%
75 | CCC(=O)N(C1CCOCC1)C1CCN(S(=O)(=O)c2cn(C)cn2)CC1 | -5.5%

2 compounds drawn at random from those above, as already listed:
No. | SMILES | hNpr1 antagonist
6 | Cc1cccc(OCCc2noc(C3CCCN3C(=O)c3ccnn3C)n2)c1 (stereo unspecified) | 4.6%
3 | NC1CC(c2cc(N3CCN(CCOc4ccccc4)CC3)ncn2)C1 (stereo unspecified) | -24.1%

(next part)
No. | SMILES | hNpr1 antagonist
76 | Cc1ncccc1C(=O)N1C[C@@H](Oc2cccnc2)C[C@H]1C(=O)N1CCCC1 | 0.4%
77 | O=C1NCCCCCCN(C(=O)Cc2cccc(F)c2)[C@H]2CCC[C@@H]12 | -2.5%
78 | Cc1ncoc1C(=O)N1CC[C@H](CO)[C@H](NC(=O)c2ccccc2)C1 | 2.6%
79 | CCN1c2cc(C(=O)Nc3ccccc3OC)ccc2C(=O)N2CCCCCC21 (stereo unspecified) | -1.7%
80 | CN(C)C(C(=O)N1CCC(N2CCSCC2)CC1)c1cccc(F)c1 (stereo unspecified) | -2.7%
81 | CC1=C[C@@H](CN2C(=O)C(C)=C(C)C2=O)[C@H](C(C)C)C[C@H]1Cc1nc2c(C)cccc2[nH]1 | ?
82 | Cc1noc(C)c1CC(=O)N1CCCC(COc2ccccc2C(=O)NC(C)C)C1 (stereo unspecified) | -11.0%
83 | CCOc1cc(=O)n2c(c1C(=O)Nc1ccc(CC)cc1)CCCC2 | -1.6%
84 | COc1ccc(CNC(=O)Cn2nc3n(c2=O)CCCC3)cc1 | -2.2%
85 | COc1ccc(CC(=O)N2CCC3(CC2)CN(C(C)=O)CC3CO)cc1OC (stereo unspecified) | -7.1%
86 | Cc1cccc(CN2CCCC(C(=O)Nc3cccc(-n4cccn4)c3)C2)n1 (stereo unspecified) | 2.3%
87 | O=C(NCC1CCN(Cc2cccc(F)c2)CC1)C1CCN(c2cn[nH]c(=O)c2)C1 (stereo unspecified) | 2.5%
88 | Cc1cccc(C(=O)N2C(C(=O)NCC(C)C)COC23CCN(C(=O)c2ccc(F)cc2F)CC3)c1 (stereo unspecified) | 2.1%
89 | Cc1nc(CCNS(=O)(=O)c2c(C)nn(C)c2C)no1 | 9.3%

Three of the compounds above, as labelled records:
(81) CC1=C[C@@H](CN2C(=O)C(C)=C(C)C2=O)[C@H](C(C)C)C[C@H]1Cc1nc2c(C)cccc2[nH]1
  hNpr1 antagonist: ?

(82) Cc1noc(C)c1CC(=O)N1CCCC(COc2ccccc2C(=O)NC(C)C)C1 (stereo unspecified)
  hNpr1 antagonist: -11.0%

(83) CCOc1cc(=O)n2c(c1C(=O)Nc1ccc(CC)cc1)CCCC2
  hNpr1 antagonist: -1.6%

Of the compounds above, these contain a CF3 group.
No. | SMILES | hNpr1 antagonist
9 | O=C(c1ncccc1O)N1CCCC(CCc2cccc(C(F)(F)F)c2)C1 (stereo unspecified) | -19.3%
52 | O=C(Cc1cccc(C(F)(F)F)c1)N1CCCc2ncc(C(=O)N3CCC[C@@H]3c3ccc(F)cc3)cc21 | -27.2%
53 | COCc1cn([C@H]2CO[C@H]3[C@@H]2OC[C@@H]3NC(=O)c2ccc(C(F)(F)F)cc2)nn1 | -0.1%[70.6 µM]

These rows are one share of the data; count on the stated rates, not on these rows.
